MbtI inh – MbtI salicylate synthase inhibition. purified MbtI enzyme, fluorescence intensity read-out. inhibition, %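 (about 17 µg/mL by stock and volumes)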. actives 0.89% (n = 100,000). AID 493033. P9WFX0;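 active = above 50% in both replicates, above 80% if mildly self-fluorescent; inactive = the rest, strongly fluorescent compounds included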;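 note: 0% = mean of negative and 100% = mean of positive controls; one replicate is shown; some compounds called inactive have numbers as strong as hits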
Target sequence (P9WFX0 whole entry, looked up): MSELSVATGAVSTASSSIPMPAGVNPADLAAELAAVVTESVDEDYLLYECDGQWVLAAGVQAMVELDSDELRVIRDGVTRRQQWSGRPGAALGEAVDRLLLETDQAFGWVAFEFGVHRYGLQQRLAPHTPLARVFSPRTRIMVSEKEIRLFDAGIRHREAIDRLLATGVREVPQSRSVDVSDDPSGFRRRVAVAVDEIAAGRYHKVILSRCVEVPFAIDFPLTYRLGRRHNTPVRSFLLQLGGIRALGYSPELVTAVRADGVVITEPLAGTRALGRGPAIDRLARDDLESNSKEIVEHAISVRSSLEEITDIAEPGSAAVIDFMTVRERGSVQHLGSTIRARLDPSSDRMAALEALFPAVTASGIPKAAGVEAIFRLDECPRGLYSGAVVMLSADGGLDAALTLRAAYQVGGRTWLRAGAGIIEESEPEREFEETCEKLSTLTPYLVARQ
* = called active by the depositor. These rows are one share of the data; rates above refer to the full screens.

SMILES	MbtI inh
C=CCc1c(C)nc2c(OC)cccc2c1Cl	69
CC(C)C(=O)Nc1nsc(-c2ccc(Cl)cc2)n1	-7
Cc1ccc(Cn2c(SCC(C)C)nc3c2c(=O)n(C)c(=O)n3C)cc1	-5
Cc1ccc2[nH]c3c(c2c1)CCCC3N1CCOCC1 (stereo not given)	-8
c1ccc(-c2ccc3c(c2)c2c4n3CCNC4CCC2)cc1 (stereo not given)	-17
COc1ccc(C2SCC(=O)N2C)cc1 (stereo not given)	-8
COC(=O)Cn1c(=N)n(CCN2CCOCC2)c2ccccc21	3
Cc1ccc(NC(=O)CN2C(=O)OC(C)(C)C2(C)O)cc1 (stereo not given)	-10
O=C(CSc1c(-c2ccccc2)c2cc(Cl)ccc2[nH]c1=O)N1CCCCC1	-3
Cc1occc1C(=O)N(Cc1ccccc1)Cc1ccccc1	-5
O=C(O)CNc1ncnc2ccccc12	2
CS(=O)(=O)N1CCC(C(=O)NC2CCCCCCC2)CC1	-16
COC(=O)CCC(=O)c1cc2ccccc2o1	-4
Cn1c(CC(=O)c2ccc(O)cc2O)nc2ccccc21	-4
COc1ccc(OCCCN2CCCCC2)cc1	-2
OCC1COc2ccccc2O1 (stereo not given)	-6
CC1(C)Cc2ccccc2C(CSc2ccccc2C(=O)O)=N1	2
O=C(OCCN1CCCCC1)C1COc2ccccc2O1 (stereo not given)	1
NC(=O)c1nnc(Cc2ccc(Cl)cc2)o1	-6
CCCn1nnc2c(=O)oc3ccccc3c21	-13

Ordered by heavy-atom count (high to low): 11 of the compounds above.
SMILES	MbtI inh
O=C(CSc1c(-c2ccccc2)c2cc(Cl)ccc2[nH]c1=O)N1CCCCC1	-3
Cc1ccc(Cn2c(SCC(C)C)nc3c2c(=O)n(C)c(=O)n3C)cc1	-5
Cc1occc1C(=O)N(Cc1ccccc1)Cc1ccccc1	-5
c1ccc(-c2ccc3c(c2)c2c4n3CCNC4CCC2)cc1 (stereo not given)	-17
Cc1ccc(NC(=O)CN2C(=O)OC(C)(C)C2(C)O)cc1 (stereo not given)	-10
Cc1ccc2[nH]c3c(c2c1)CCCC3N1CCOCC1 (stereo not given)	-8
CC(C)C(=O)Nc1nsc(-c2ccc(Cl)cc2)n1	-7
C=CCc1c(C)nc2c(OC)cccc2c1Cl	69
NC(=O)c1nnc(Cc2ccc(Cl)cc2)o1	-6
O=C(O)CNc1ncnc2ccccc12	2
OCC1COc2ccccc2O1 (stereo not given)	-6

Other entries follow:
SMILES	MbtI inh
O=C(CSc1ncn[nH]1)N1c2ccccc2CCc2ccccc21	-7
CC(=O)Nc1nnc(CCS(=O)(=O)c2ccc3ccccc3c2)s1	22
Cc1n[nH]c(C)c1Sc1n[nH]c(=O)[nH]c1=O	-7
CS(=O)(=O)N1Cc2ccccc2CC1C(=O)O (stereo not given)	-8
CCOC(=O)c1[nH]cc(-c2ccccc2)c1N1CCOCC1	9
CCOC(=O)Nc1ccc(OC)cc1	-2
Oc1cccc(Cn2c(-c3cccc(O)c3)nc3ccccc32)c1	-10
CCOc1cc(C#N)c(NC(=O)c2ccco2)cc1OCC	13
O=C1C=C(c2ccccc2)OC2(CCCC2)O1	6
CN(CCc1ccccn1)Cc1ccncc1	-5
CC(C)Cn1c(=O)c2cc3c(=O)n(CC(C)C)c(=O)c3cc2c1=O	0
Cc1ccc(-c2n[nH]c(=O)c3ccccc23)cc1S(=O)(=O)N1CCCC1	-6
O=C(Nc1cccc(-c2nc3ccccc3o2)c1)c1cccnc1	-21
COc1ccc(CNC(=O)c2cc3c(=O)oc4ccccc4c3s2)cc1	-1
Nc1ccc2c(c1)C(=O)N(CCO)C2=O	-67
O=C(NCCOc1ccccc1Cc1ccccc1)c1cccnc1	-10
O=C(NCCOc1ccc(F)cc1)c1ccccc1-c1ccccc1	-6
CCn1c(C)c(CCC(=O)O)c(=O)n2nc(-c3ccccc3OC)cc12	100
Cc1[nH]c2ccccc2c1CCCNC1CCCCC1	-1
O=C1c2ccccc2CCC1C(O)c1ccccn1 (stereo not given)	10
CCOc1ccc(NC(=O)C2NC(=O)CC2c2ccccc2)cc1 (stereo not given)	-7
COc1ccc(OC)c(C(=O)c2coc3ccc(O)c(CN(C)C)c23)c1	1
c1cn(-c2ccc3nnnn3n2)cn1	-11
Nc1cccc(CCC(=O)O)c1	-7
N=c1n(Cc2ccccc2)c2ccccc2n1CC(O)c1ccco1 (stereo not given)	-10
COC(=O)C1CCN(C(=O)CCC2CCCCC2)CC1	-8
COC(CN)c1ccc2c(c1)OCCO2 (stereo not given)	1
Cc1nc2ccc(Cc3ccc4nc(C)oc(=O)c4c3)cc2c(=O)o1	1
CC1(C)Cc2c(sc3c2c(=O)n(-c2ccccc2)c2nnnn32)CO1	-26
COC(=O)C(C)n1ncc2ccccc2c1=O (stereo not given)	-6
CC(=O)NCCOc1c(C)cc(S(N)(=O)=O)cc1C	-2
OCc1nnn(-c2ccccc2)c1CO	-1
CC(C)(C)NC(=O)Cn1c(=O)n(CC(=O)NC(C)(C)C)c2ccccc21	5
CC(C(=O)N1c2ccc(F)cc2CCC1C)N1C(=O)c2ccccc2C1=O (stereo not given)	-15
O=C(CNC(=O)c1ccco1)OCc1ccc(Cl)cc1	-5
Cc1c(C#N)c(N)nc(SCC(=O)c2ccc(Cl)cc2)c1C#N	-1
CCOc1ccc(Nc2c3c4c(cccc4[nH]c2=O)C(=O)c2ccccc2-3)cc1	-9
C=CCN(c1ccccc1C(=O)O)S(=O)(=O)c1ccc(NC(=O)OC)cc1	-49
O=C(NC1c2ccccc2-c2ccccc21)c1ccco1	-12
Cc1ccccc1OCc1nnc2c3cnn(C)c3ncn12	-7
COc1ccc(C2c3sc(=O)[nH]c3SC3C(=O)N(c4ccc(Br)cc4)C(=O)C32)cc1 (stereo not given)	-2
O=C(O)Cn1nc(-c2ccccc2)cc1-c1ccccc1	-4
C=CCSc1nnc2n(-c3ccccc3)c(=O)c3c4c(sc3n12)CCC4	-2
CCc1ccc(CN(C)CCc2ccccn2)cc1	-7
O=C(O)Cn1nc(-c2ccccc2)ccc1=O	-10
CCC(CC)c1nc2cc(OC)c(OC)cc2c(=O)o1	-7
O=C1CSC(=O)N1C/C=C/CN1C(=O)CSC1=O	-8
O=C(Nc1nccs1)C1CC1(c1ccccc1)c1ccccc1 (stereo not given)	-9
CC(CN(C)Cc1ccccc1)OC(=O)c1ccco1 (stereo not given)	-5
CCOc1cc(C#N)c(NC(=O)Cn2nnc3ccccc32)cc1OCC	10
COc1ccc(C2C(C(=O)Nc3cccc(C)n3)c3ccccc3C(=O)N2c2ccc(OC)cc2)cc1 (stereo not given)	29
O=c1[nH]cc(-n2c(=O)c3ccccc3c3ccccc3c2=O)c(=O)[nH]1	-8
CC1=CC(C)C2C(=O)N(Cc3ccco3)C(=O)C2C1 (stereo not given)	-9
CCOc1ccc(C2Sc3ccccc3NC3=C2C(=O)OC3)cc1 (stereo not given)	-4
COC(NC(=O)c1ccccc1)c1ccccc1 (stereo not given)	-2
CCCCc1ccc(-c2ccc(C#N)cc2)nc1	-2
Nc1nc2ccccc2n1Cc1ccccc1	8
CCc1nc2c(oc3ccccc32)c(=O)[nH]1	-10
O=C(OCCCc1nc2ccccc2[nH]1)c1cccs1	2
Cc1cc(OC(CN(C)C)CN(C)C)nc2ccccc12	-1

More results:
SMILES	MbtI inh
CC(C(=O)OCC(=O)c1ccccc1)N1C(=O)c2ccccc2C1=O (stereo not given)	0
O=C(CN1C(=O)C2C3C=CC(C3)C2C1=O)NCCN1CCCc2ccccc21 (stereo not given)	3
CCn1cc(C2=NCC(C)O2)c2ccccc21 (stereo not given)	9
C/C(=N\O)C(=O)NCCN1CCCCC1	-10
CC(CN1C(C)CCCC1C)OC(=O)c1cccc(F)c1 (stereo not given)	-6
Cc1ccccc1C(=O)N=C1NC(=O)C(C)S1 (stereo not given)	6
O=C(CN1C(=O)C2C3C=CC(C3)C2C1=O)NC1CCCc2ccccc21 (stereo not given)	-5
O=c1[nH]cc(NCCO)c(=O)[nH]1	-6
Cc1cccc(C)c1NC(=O)c1ccc(CN2CCCCC2)cc1	-14
COC(=O)c1cc(-c2ccc(OC)c(OC)c2)n[nH]1	1
c1ccc(CCn2c3ccccc3c3nnc(SCCN4CCOCC4)nc32)cc1	-7
N#CCCn1cc(C(CC(=O)c2ccccc2)C(=O)O)c2ccccc21 (stereo not given)	-3
CCC(=O)Nc1nc2ccccc2n1CCN(CC)CC	-9
CN(C)CCNC(=O)C1CCCNC1=O (stereo not given)	-6
CCOC(=O)c1c(-c2cc(OC)ccc2OC)c2oc3ccccc3c2[nH]c1=O	-5
CC(c1ccccc1)n1c(N)c(C#N)c2nc3ccccc3nc21 (stereo not given)	-17
COC(=O)c1cn(NC(=O)C(c2ccccc2)C2CCCC2)c(=O)c2ccccc12 (stereo not given)	-14
CCCC(O)c1ccco1 (stereo not given)	-8
O=c1cc(-c2ccccc2)[nH]n1-c1nc2ccccc2[nH]1	-4
COC(=O)n1ccc(C(=O)Nc2ccccc2F)n1	-7
COC(=O)COc1ccc2c(=O)c(-c3ccccc3OC)coc2c1	-9
Cn1nnnc1SCc1cc(=O)[nH]c2ccccc12	0
COC(=O)C1=CNC=C(C(=O)OC)C1c1ccc(C)s1	-29
O=C(NC1CCCCCC1)C1CCCN(c2nc3ccccc3o2)C1 (stereo not given)	-13
CC(C)CC(NC(=O)c1ccco1)C(=O)Nc1ccc2c(c1)OCCO2 (stereo not given)	-8
CCc1c(C)c2c(C)nn(-c3ccccc3)c2[nH]c1=O	-6
CCc1cc2c(=O)c(-c3nc4ccccc4s3)coc2c(CN(CC)CC)c1O	1
CC(=O)Nc1cccc(-c2nc3cc(C)ccc3o2)c1C	-69
CC(C)(C)NC(=O)Cn1nnc(-c2ccc3c(c2)OCO3)n1	-9
Cc1ccc(Cn2c(=N)n(CC(=O)c3ccco3)c3ccccc32)cc1	-3
CN(CCCc1nc2ccccc2[nH]1)S(=O)(=O)c1ccc(Cl)cc1	-7
O=C(c1cccs1)C(O)NS(=O)(=O)c1ccccc1 (stereo not given)	3
c1ccc(-c2cn3ccsc3n2)cc1	-13
CCS(=O)(=O)c1ccc(O)c(NC(=O)COc2ccccc2)c1	8
CC(=O)Nn1cc(C(=O)O)c2ccccc2c1=O	12
c1coc(Cn2c(-c3ccco3)nc3ccccc32)c1	-116
Cc1ccc(N2C(=O)c3ccc(Oc4cccc(N)c4)cc3C2=O)c(C)c1	-10
CCC(C)N(C)Cc1cccc(C2(O)CCN(S(=O)(=O)c3ccc(F)cc3)CC2)c1 (stereo not given)	-10
Clc1cc(N2CCCC2)nc(N2CCCC2)n1	-6
C=CCn1c(=N)n(CC(=O)OC)c2ccccc21	-2
CNCCc1nc(N)n[nH]1	-13
COc1ccc(C2C(C(=O)NCc3cccnc3)c3ccccc3C(=O)N2c2ccc(OC)cc2)cc1 (stereo not given)	6
CCC1C(=O)CN1S(=O)(=O)c1ccc(C)cc1 (stereo not given)	-7
O=C(CSCc1ccccc1)Nc1ccccc1	-10
O=C(Cc1ccc(-n2cccc2)cc1)NC1CCCCCC1	-9
CCCN(Cc1ccccc1)C(=O)c1ccc(N2C(=O)c3ccccc3C2=O)cc1	-11
COc1ncnc2sc(C(=O)O)c(C)c12	-3
CN1C(=O)C2C=C(C(=O)NCCN3CCC(Cc4ccccc4)CC3)SC2c2ccccc21 (stereo not given)	16
CCN(CC)S(=O)(=O)c1ccc(NC(=O)[C@@H]2CCCC[C@@H]2C(=O)O)cc1	1
c1ccc(CSC2=NCCS2)cc1	-9
CCS(=O)(=O)N1CCC(C(=O)N2CCC3(CC2)OCCO3)CC1	-7
Cc1ccc(Nc2nc(CSc3nnnn3-c3ccccc3)cc(=O)[nH]2)cc1	-2
COc1ccc(CN/C(C)=C/c2nsc(Nc3ccc(F)cc3)n2)cc1	-7
COC(=O)c1ccc(NC(=O)CNc2cc(Cl)ccc2OC)cc1	-4
Clc1ccc(OCCN2CCCCC2)cc1	6
CN(C)c1ccc(-c2ncnn2-c2ccccc2)cc1	-10
CC(=O)Oc1ccc(N2C(=O)c3ccc(-c4nc5ccccc5c(=O)o4)cc3C2=O)cc1	-8
CCCn1c(SCCO)nc2ccccc21	-2
CC(=O)n1c(=O)n(C(C)=O)c2cc(Br)ccc21	-10
CC(C)c1ccc2c(c1)C(=O)NC(C)(C)C2	1

Taken from above.
`COc1ncnc2sc(C(=O)O)c(C)c12` in MbtI inh is entered as -3
`O=C(CSCc1ccccc1)Nc1ccccc1` in MbtI inh is entered as -10
`CCN(CC)S(=O)(=O)c1ccc(NC(=O)[C@@H]2CCCC[C@@H]2C(=O)O)cc1` in MbtI inh is entered as 1
`CN1C(=O)C2C=C(C(=O)NCCN3CCC(Cc4ccccc4)CC3)SC2c2ccccc21` (stereo not given) in MbtI inh is entered as 16
`CCC1C(=O)CN1S(=O)(=O)c1ccc(C)cc1` (stereo not given) in MbtI inh is entered as -7
`CNCCc1nc(N)n[nH]1` in MbtI inh is entered as -13
`CCCn1c(SCCO)nc2ccccc21` in MbtI inh is entered as -2
`CC(=O)n1c(=O)n(C(C)=O)c2cc(Br)ccc21` in MbtI inh is entered as -10

(more compounds)
SMILES	MbtI inh
COc1ccc(-c2cc3nc(C4CCN(C(=O)OC(C)(C)C)CC4)c(C(=O)O)cn3n2)cc1	-25
CN(C)CCOC(=O)c1c[nH]c2ccccc12	-7
COc1ccc2c(c1)c1c(n2C(C)=O)C(OC(C)=O)=NCC1	-52
CC(C)c1ccc(OC(=O)CN2C(=O)c3ccccc3C2=O)cc1	-20
O=C(c1cccs1)N(Cc1ccccc1)Cc1ccccc1	-9
CC(C)C(C(=O)Nc1nccs1)N1C(=O)c2ccccc2C1=O (stereo not given)	-11
CC(=O)Nc1ccc(-c2nc3c(Cl)cccc3[nH]2)cc1	99

Compound activity from PubChem BioAssay.
